# TAR Tat displ: HIV-1 TAR-Tat binding disruption | z-score (concentration not given with the values) | hit rate 0.6% among 100,000 | HIV-1 TAR RNA, Tat peptide displacement FRET; active compounds read high;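 note: score is relative to mean and SD of negative controls; some compounds called inactive have numbers as strong as hits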
# CDC25B-CDK2 inh: human CDC25B-CDK2/CyclinA binding inhibition; HTRF CDC25B-CDK2/CyclinA binding, anti-His/anti-Flag; active compounds read high; hit rate 0.72% among 94,000; AID 1259370; z-score (test concentration not listed); P30305+P24941;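 note: score is relative to mean and SD of negative controls; strong numbers were not always called active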
# * hit, by the source's call; . = no result given.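 Rule for the calls: active = z-score from 3 up in half or more of its runs; inactive = the rest.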
# Second line of a record: TAR Tat displ	CDC25B-CDK2 inh
1) CC1=C(c2ccccc2)S(=O)(=O)NC1=NCCCN1CC(C)CC(C)C1 (centres undefined)
    -0.41	-2.5
2) Cc1ccc2c(c1)C(O)(CC(=O)c1cccc(Cl)c1)C(=O)N2 (centres undefined)
    0.03	.
3) CC(C)(C)C1CCc2c(sc3nc(CCC(=O)Nc4ccccc4)[nH]c(=O)c23)C1 (centres undefined)
    0.13	.
4) Cc1cc2ncc(-c3ccccc3)c(N)n2n1
    0.51	0.11
5) O=S(=O)(c1ccc2nc(N3CCOCC3)ccc2c1)N1CCCCC1
    2.1	.
6) COc1ccc(-c2nc(CSc3nncn4c3cc3occc34)c(C)o2)cc1OC
    -8	.
7) O=C(CN1C(=O)COc2ccccc2C1=O)c1ccc(Br)cc1
    0.6	0.06
8) COc1ccc(-c2c(C#N)c(=O)[nH]c3c2c(C)nn3-c2ccccc2)cc1
    .	-1.5
9) CCOC(=O)c1oc2ccc(S(=O)(=O)n3nc(-c4ccccc4)cc3N)cc2c1C
    .	-1.9
10) Cc1ccc(Nc2c(-c3ccc(Cl)cc3)c(=O)c2=O)cc1C
    -0.32	.
11) Cn1nc(C(=O)N2CCN(c3ccccc3F)CC2)c2c1-c1ccccc1S(=O)(=O)C2
    -0.04	0.16
12) CNC(=O)c1ccc(N2CCSc3ccccc32)s1
    -0.89	.
13) CN1C2CC(OC(=O)[C@H](CO)c3ccccc3)C[C@H]1[C@H]1OC21 (some centres undefined)
    1.1	.
14) CCc1ccc(-c2noc3c(=O)[nH]cnc23)cc1
    0.04	-0.88
15) Cc1nc2ccc(S(=O)(=O)N(C)CC(=O)N3CCN(C4CCCCC4)CC3)cc2s1
    0.98	0.32
16) Fc1ccc(Cc2nnc(-c3cccs3)o2)c(Cl)c1
    -1.6	-1.8
17) CN1C(=O)CSc2ccc(NC(=O)N3CCC(N4CCCCC4)CC3)cc21
    1.4	-0.97
18) CCC(C)NC(=O)CSc1ncnc2c1sc1cccc(F)c12 (centres undefined)
    -0.24	.
19) COc1ccc(N=Nc2cc(C)c(O)c(CN3CCCCC3)c2)cc1
    .	-2.9
20) O=C(CCCc1nnc2c(=O)n(-c3ccc(Cl)cc3)ccn12)N1CCC(N2CCCCC2)CC1
    1.1	.
21) Cc1ccc(C)c(N2CCN(S(=O)(=O)c3c(C)nc4scc(C)n4c3=O)CC2)c1
    0.62	-1.4
22) Cc1c(Cl)cccc1NC(=O)CSc1nnc(C)n2c1cc1occc12
    0.17	.
23) CCS(=O)(=O)CCn1c([N+](=O)[O-])cnc1C
    2.1	.
24) COc1ccc(Oc2nc(C)nc3c2oc2ccccc23)cc1
    1.1	.
25) C=CCN(CC=C)Cc1c(O)ccc2oc(C)c(C(=O)NC3CCCCC3)c12
    -0.84	-1.3
26) CN1C(C(=O)NC2CCCC2)=CC(c2ccc(F)cc2)=NS1(=O)=O
    1.1	-0.12
27) Cc1nnc(N2CCN(C(=O)NC3CCCC3)CC2)c2nn(-c3ccccc3)c(C)c12
    -5.1	-1
28) Cn1nc(C(=O)Nc2cccc(Cl)c2)c2c1-c1ccccc1OC2
    1	-0.14
29) C=CCN(Cc1nc(-c2ccc(Cl)cc2)no1)C(=O)NC1CCCCC1
    2.6	-1.2
30) Cc1ccccc1-c1nnc(C2CCN(S(=O)(=O)c3ccc4c(c3)CCCC4)CC2)o1
    0.66	-1.6
31) N#CC1=C2SCN(c3cccc(Cl)c3)CN2C(=O)CC1c1cccc(F)c1 (centres undefined)
    -1.7	8.4*
32) O=S(=O)(c1ccc(Cl)cc1)c1cnc2ccccc2c1NCc1ccccc1
    0.22	0.19
33) COc1ccc(-c2noc(-c3ccccc3C(=O)O)n2)cc1
    .	-1.2
34) N#Cc1ccc(S(=O)(=O)N2CCN(c3cccc4[nH]ccc34)CC2)cc1
    .	0.02
35) O=c1ccnc(S/C=C/c2ccccc2)[nH]1
    1.3	-2
36) O=C1C2CC=CCC2C(=O)N1c1ccc(Cc2ccncc2)cc1 (centres undefined)
    1.2	-1.6
37) CCOC(=O)c1sc2ncn(CC(=O)NCC3CCCO3)c(=O)c2c1C (centres undefined)
    .	-0.56
38) Cc1nc(-c2cccc(NS(=O)(=O)c3ccc4ccccc4c3)c2)cs1
    -2.3	0.52
39) Cn1c(=O)c2cc(C(=O)Nc3ccc(F)c(Cl)c3)sc2c2ccc(Cl)cc21
    0.79	-0.25
40) CCC(C(=O)N1CCCC1)N1C(=O)CCn2nc(C)cc21 (centres undefined)
    1.1	.
41) CCOc1ccc(-c2cc(C(=O)Nc3ccncc3)c3ccccc3n2)cc1
    .	2.2
42) CCOc1ccc(-n2c(C)c(C)c3c2ncn2ncnc32)cc1
    3.3	-2.2
43) C=CCc1ccc(OCc2nc3ccc(C)cc3[nH]2)cc1
    0.61	-1.2
44) O=C(O)CCCN1C(=O)C(=O)/C(=C(/O)c2ccccc2)C1c1ccc(Br)cc1 (centres undefined)
    0.32	-0.22
45) Cc1cc2c(cc1C)[n+](C)cn2CC(O)COc1cccc(Cl)c1 (centres undefined)
    0.07	-0.56

# A different layout for part of the listing above:
item	compound	TAR Tat displ	CDC25B-CDK2 inh
34	N#Cc1ccc(S(=O)(=O)N2CCN(c3cccc4[nH]ccc34)CC2)cc1	.	0.02
35	O=c1ccnc(S/C=C/c2ccccc2)[nH]1	1.3	-2
36	O=C1C2CC=CCC2C(=O)N1c1ccc(Cc2ccncc2)cc1 (centres undefined)	1.2	-1.6
37	CCOC(=O)c1sc2ncn(CC(=O)NCC3CCCO3)c(=O)c2c1C (centres undefined)	.	-0.56

# (next part)
# Second line of a record: TAR Tat displ	CDC25B-CDK2 inh
46) COc1cc(OC)cc(-c2nc3n(n2)C(c2ccncc2)C2=C(CCCC2=O)N3)c1 (centres undefined)
    2.5	-0.38
47) COC(=O)c1c(NC(C)=O)sc2c1CCS2
    .	-1.2
48) Cc1nc(C)c(-c2ccc(SCc3cccc(Cl)c3)nn2)s1
    0.45	.
49) Cc1ccc(-c2c(C#N)c(N)nc3c2CC(C)CC3)o1 (centres undefined)
    0.11	-1.5
50) Cc1c(C(=O)O)sc2nc3n(c(=O)c12)CCC(C)CC3 (centres undefined)
    0.13	0.58
51) CCC1=Nc2cc(C(=O)O)ccc2Sc2ccccc21
    1.1	.
52) O=C(CN1C(=O)CC(c2ccco2)Sc2ccccc21)Nc1ccc(F)cc1 (centres undefined)
    .	-0.79
53) CCOc1ccccc1C1NC(=O)c2c(sc3c2CCN(C)C3)N1 (centres undefined)
    -3.5	1.3
54) O=C(Nc1nc2c(s1)CN(S(=O)(=O)c1ccccc1)CC2)Nc1ccccc1Cl
    1.3	.
55) Cc1[nH]nc(-n2cnnc2)c1NC(=O)c1cccs1
    0.87	0.47
56) Cc1c([N+](=O)[O-])c(/C=C/N(C)C)nn1C
    .	-1.5
57) CC(C)(O)C#Cc1ccc(/C=N/OC(=O)c2ccc(Cl)cc2)cc1
    .	0.41
58) O=C(c1ccco1)N1CCN(C(=O)C2c3ccccc3C(=O)N3CCc4ccccc4C23)CC1 (centres undefined)
    .	0.34
59) O=C(c1ccccc1)c1cn(Cc2ccc(F)cc2)c2ccccc2c1=O
    -0.32	-0.78
60) O=C(CCCN1Cc2ccccc2C1)c1ccc(F)cc1
    -0.7	-0.84
61) O=C(Nc1ccc2oc(-c3ccncc3)nc2c1)c1cccs1
    -2.4	-2.5
62) Cc1cc(/C(N)=N/O)cc(/C(N)=N/O)c1
    .	-2.4
63) COc1ccc2nc(-n3nc(C)c4c3NC(=O)CC4c3cc(Br)ccc3OC)sc2c1 (centres undefined)
    1.9	.
64) CC(=O)Nc1ccc(Cl)cc1C(=O)OCC(=O)c1ccc(Br)cc1
    .	0.58
65) O=C(Nc1cc(=O)c2ccccc2o1)OCc1ccccc1
    0.79	-1.4
66) Nc1c(-c2ccccc2)nnn1-c1ccc(Br)cc1
    .	-1.1
67) CC(C)(C)C(=O)OCc1cc(=O)n2nc(C3CCCCC3)sc2n1
    -1.1	.
68) O=C(O)COCC(=O)N1CCCN(c2ccc(C(F)(F)F)cn2)CC1
    .	-2.2
69) CC1=C(C(=O)OC2CCCC2)C(c2ccc(Br)cc2)CC(=O)N1 (centres undefined)
    -0.19	-1.7
70) Fc1ccccc1-c1nn2c(C3COc4ccccc4O3)nnc2s1 (centres undefined)
    -0.43	-0.86
71) COCCNC(=O)Cn1nnc2sc3c(c2c1=O)CCCC3
    0.19	-1.4
72) COCc1cc(CN2CCN(c3cccc(Cl)c3)CC2)c(O)c2ncccc12
    0.88	-7
73) CN(C)/C=C/C(=C(/C#N)C(N)=O)c1ccc(Cl)cc1
    .	-2.1
74) CNC(=O)C1CCN(c2ccccc2)C1=O (centres undefined)
    0.49	.
75) Cc1ccc(-c2c(C(=O)O)oc(=O)c3ccccc23)cc1C
    1.9	0.14

# Profiles from above. Screens in order: TAR Tat displ, CDC25B-CDK2 inh
# O=C(Nc1cc(=O)c2ccccc2o1)OCc1ccccc1 is entered as 0.79, -1.4
# CC(=O)Nc1ccc(Cl)cc1C(=O)OCC(=O)c1ccc(Br)cc1 is entered as ., 0.58
# O=C(Nc1ccc2oc(-c3ccncc3)nc2c1)c1cccs1 is entered as -2.4, -2.5

# Further results.
# Second line of a record: TAR Tat displ	CDC25B-CDK2 inh
76) Clc1ccc2nc3c(c(NCCCN4CCOCC4)c2c1)CCCC3
    0.16	-1.4
77) Cc1ccc(N(CC(O)CN2C(=O)NC(C)(C)C2=O)S(=O)(=O)c2ccccc2)cc1 (centres undefined)
    .	-0.67
78) Cc1cc(C)cc(C(=O)Nc2c(C)nc3ccc(Cl)cn3c2=O)c1
    0.8	.
79) O=C(CSc1nnc(-c2cccnc2)n1Cc1ccccc1)c1c[nH]c2ccccc12
    1.2	.
80) Cc1oc(C(C)(C)C)cc1C(=O)N1CCN(c2ncccc2C(F)(F)F)CC1
    .	-2.3
81) O=C(Nc1nccs1)C(=O)c1c[nH]c2ccccc12
    1.9	-2.4
82) O=C(Cc1ccc(-c2ccccc2)cc1)NNC(=O)c1ccccc1Cl
    .	-3.6
83) O=C(COc1ccccc1CSc1ccc(Cl)cc1)N/N=C\c1cccs1
    .	0.62
84) COc1ccc(NC2=NS(=O)(=O)C(c3ccc(Cl)cc3)=C2C)c(OC)c1
    0.54	-1.6
85) CCc1ccc(-c2cn3nc(C(C)C)sc3n2)cc1
    0.9	-0.75
86) Cc1ccc(-c2cn3cccnc3n2)cc1NC(=O)C(C)C
    .	-0.93
87) COc1ccc(NC(=S)Nc2c(C)cccc2C)cc1OC
    .	0.04
88) CCOc1c(Br)cc(C2CC(=O)Nc3cc(OC)c(OC)cc32)cc1OC (centres undefined)
    .	1.1
89) COc1cc(CN2CCc3nc(N4CCN(c5ccccn5)CC4)ncc3C2)ccc1OC(C)C
    0.64	.
90) CCOC(=O)c1sc(=S)n(-c2cccc3ccccc23)c1N
    1.2	.
91) COc1cc(/C=C/c2nc(-c3ccccc3O)n(-c3ccccc3)n2)ccc1O
    2.5	0.14
92) CCCCN(CC)CCCn1cnc2c([nH]c3ccc(Cl)cc32)c1=O
    0.93	-1.7
93) Cc1ccc(CN2C(=O)N(c3ccc(F)cc3)C3CS(=O)(=O)CC32)cc1 (centres undefined)
    1.8	.
94) CCCSCCCNC(=O)Cn1ncc2ccsc2c1=O
    0.88	-1.7
95) COc1ccc(N2COc3cc4c(cc3C2)OCO4)cc1
    .	-4.4
96) NNC(=O)c1cn2cc(C(F)(F)F)cc(Cl)c2n1
    .	-0.68
97) CCCCN(C)C(=O)C1CCCN(S(=O)(=O)c2ccc3c(c2)CC(C)N3C(=O)C2CC2)C1 (centres undefined)
    0.57	.
98) CC1=C(C(=O)OC(C)C)C(c2coc3ccc(C)cc3c2=O)C2=C(CC(c3cccs3)CC2=O)N1 (centres undefined)
    -0.64	-2.9
99) Cc1ccc(S(=O)(=O)c2cn(C)c3cc(N4CCCC(C)C4)c(F)cc3c2=O)cc1C (centres undefined)
    0.97	.
100) CC(C)C(NC(=O)CN1c2ccc(Br)cc2-c2ccccc2S1(=O)=O)C(C)C
    -0.46	-2.7
101) Cc1cc(NC(=O)CSc2nc3nccnc3c(=O)n2CCC(C)C)n[nH]1
    0.59	0.99
102) Cc1ccc(-n2c(C(C)(C)C)cn3c4c(=O)n(C)c(=O)n(C)c4nc23)cc1C
    -0.21	0.4
103) COC(=O)C(CCSC)NC(=O)C1CCN(c2ncnc3c2nc2n3CCCCC2)CC1 (centres undefined)
    0.85	.
104) COc1ccc(COCC(O)CN2CCC(C(N)=O)CC2)cc1 (centres undefined)
    .	-0.68
105) CCN(CC)C(=O)C(=O)NC(C)C(c1cccs1)N1CCOCC1 (centres undefined)
    0.58	-1.4

# Down the list, as entered above.
# Compounds 36–43 in TAR Tat displ, in turn: 1.2, ., -2.3, 0.79, 1.1, ., 3.3, 0.61
# Compounds 36–43 in CDC25B-CDK2 inh, in turn: -1.6, -0.56, 0.52, -0.25, ., 2.2, -2.2, -1.2

# Next section
# Second line of a record: TAR Tat displ	CDC25B-CDK2 inh
106) O=C(c1csc(-c2ccccc2)n1)N(Cc1ccccn1)Cc1ccccn1
    .	-1.3
107) Cc1cccn2c(=O)c3cc(C(=O)NCCCN4CCCC4=O)n(C)c3nc12
    .	-2.5
108) CCN(CC)CCNc1ncnc2onc(-c3cc(F)cc(F)c3)c12
    0.87	.
109) Oc1c(CN2CCN(Cc3ccc4cccnc4c3O)CC2)ccc2cccnc12
    9.4*	-4.2
110) CC1CC(C)CN(C(=O)CCCc2nnc3n(C)c(=O)c4sccc4n23)C1 (centres undefined)
    0.69	-1.7
111) COc1ccc(-c2cccc(NS(=O)(=O)c3cc(F)ccc3OC)c2)nn1
    -0.03	.
112) CC1c2snnc2-c2cc(Cl)ccc2S1(=O)=O (centres undefined)
    .	-1.1
113) O=C(CC1(O)C(=O)N(CCc2ccccc2)c2ccc(Br)cc21)c1ccccc1O (centres undefined)
    .	-0.3
114) Cc1nn2c3c(cnc2c1-c1ccc(F)cc1)C(=O)CC(C)C3 (centres undefined)
    -1.9	-1.5
115) CCOCCCNc1ncnc2onc(-c3ccc(C)cc3)c12
    -0.11	.
116) Cn1c(SCC(=O)NC2CCCC2)nc2c(c1=O)SCC2
    3.1	-2.2

# Screens: PubChem BioAssay, Center for Chemical Genomics, University of Michigan

# Rows are unselected; 0.94% or so of the library scored in one or more.
